# Sa ugtP lethal – kills S. aureus RN4220 lacking UgtP; S. aureus RN4220 ugtP deletion, OD600 growth, 16 h; some inactives read as strong as hits; 330,000 tested, 0.54% active; growth inhibition, % (test concentration not listed); AID 1259309;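 active = z-score under -3 and OD600 up to 0.15 on both plates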;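 note: plate controls were untreated wells for no effect and antibiotic for full effect; wells of about 80 µL received 100 nL stock; the first replicate is given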
# BJeLR viability – BJeLR cell viability loss; 300,000 tested, 0.17% active; inhibition, % (concentration not given with the values); BJeLR (HRASV12) viability, CellTiter-Glo ATP luminescence, 48 h; reference of the scale not given here;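 active = replicate mean above 50%; inconclusive = above 50% but judged a plate artefact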;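 note: 50 nL library stock added to about 25 µL; numbers are from one replicate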
# Mtb hypoxia rep – Mtb hypoxia fluorescent reporter inhibition; M. tuberculosis hypoxia-regulated fluorescent reporter, fluorescence; fluorescence inhibition, % (concentration not given with the values); 300,000 tested, 0.1% active;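 active = 35 to 45% if threefold the growth effect, above 45% if 1.5-fold the growth effect; inactive = the rest, general growth blockers included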;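 note: wells of about 50 µL received 100 nL stock; 0% = vehicle wells and 100% = reference inhibitor wells; whole bacteria with a GFP reporter of the hypoxia response; strong numbers were not always called active; many hits fall short of the cut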
# Autofluor counter – flagged as autofluorescent in microsphere protease counterscreen; 360,000 tested, 3.1% active; AID 624483; compound autofluorescence counterscreen, microsphere flow cytometry; active compounds read high; fluorescence intensity (no concentration beside the values);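 active = at least 3 SD above the mean of all compounds, about 16000 in these data; inconclusive = too few beads counted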;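 note: 100 nL of 1 mM stock went into each well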
# PrP 5UTR inh – suppresses PrP 5' UTR mRNA reporter expression | AID 488862 | 340,000 tested, 0.35% active | cell-based PrP 5' UTR mRNA reporter, plate reader | inhibition, % (no concentration beside the values);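 active = every replicate at 50% or more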;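 note: 0 = median of the neutral control wells; tested in H4 reporter cells; numbers are from one replicate; inactives centre near -14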
# RN4220 kill – S. aureus RN4220 growth inhibition; OD600, 16 h; inhibition, % (no concentration beside the values); 330,000 tested, 0.33% active; AID 1259311;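 active = z-score of -3 or lower and OD600 up to 0.18 on both plates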;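 note: plate controls were untreated cells for no effect and reference antibiotic for full effect; stock transfer was 100 nL into about 80 µL; one replicate is shown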
# Mtb hypoxia rep growth – second read-out of Mtb hypoxia rep, no call of its own (marks repeat the call); growth inhibition, %; measured here: M. tuberculosis growth (absorbance);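 0% = vehicle and 100% = reference antibiotic; read after six days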
# * marks the source's active call; other numbers are inactive results; u = inconclusive; x = no result given; & = joins results of further samples.
no.	SMILES	Sa ugtP lethal	BJeLR viability	Mtb hypoxia rep	Mtb hypoxia rep growth	Autofluor counter	PrP 5UTR inh	RN4220 kill
1	COc1ccc(S(=O)(=O)N2CCOCC2)cc1C(=O)Nc1ccc2c(c1)OCO2	1	0	-1	-4	6800	-15	-3.3
2	O=C1CN(c2nc3nonc3nc2N2CCCCC2)CCN1	1	-25	-1	15	4307	-15	2.4
3	S=c1[nH]nc(COc2ccc3ccccc3c2)o1	-6	9	12	2	2413	-16	-1.4
4	Cc1cc(C(=O)N/N=C/c2c[nH]c3ccccc23)c(C)o1	x	-2	x	x	2104	-18	x
5	CC(C)Cn1c(N)c(C(=O)CSc2ncccn2)c(=O)n(C)c1=O	6	-2	-2	-7	u	-17	1.4
6	COc1cccc(C(=O)Nc2sc(C(C)C)cc2C(N)=O)c1OC	7	-3	-14	3	6159	-5	2.0
7	CCSc1nnc(-c2ccncc2)n1Cc1ccccc1	4	-21	11	8	16561*	-11	2.5
8	Cc1nc2ccccc2c(=O)n1-c1cc([N+](=O)[O-])cc([N+](=O)[O-])c1	x	6	x	x	3997	-15	x
9	Cc1ccc(CNC(=O)c2sc3nc4c(c(C(F)(F)F)c3c2N)CCC4)cc1	12	-4	-1	-2	24632*	-24	2.6
10	N=C1C(c2ccccc2)=C(O)CN1c1cccc2ccccc12	7	-4	6	-1	3783	-9	6.0
11	CN(Cc1c(C(=O)NN=Cc2ccccc2F)nnn1-c1nonc1N)c1ccccc1	4	x	-1	2	x	x	4.7
12	C/C(=N/O)c1ccc(Oc2cnccn2)cc1	x	-4	x	x	2660	-5	x
13	CC(=O)Nc1ccc(S(=O)(=O)N2CCCC2C(=O)Nc2ccc3c(c2)OCCO3)cc1 (stereo unspecified)	-1	-1	-7	6	4658	-30	-2.5
14	N#C/C(=C\c1ccc(Oc2ccc(C(F)(F)F)cc2[N+](=O)[O-])cc1)c1nc2ccccc2[nH]1	x	6	x	x	3165	-17	x
15	C/C=C(\C)CN1CCN(c2cc(C)ccc2C)CC1	13	17	3	3	11795	-11	1.8
16	NC(=O)C1CCN(C(=O)c2cnn(-c3ccccc3)c2NC(=O)c2cccc(F)c2)CC1	7	-6	-1	2	3783	-10	1.5
17	CCOC(=O)N1CCN(C(=O)/C(=C/c2ccc(OC)cc2)NC(=O)c2ccccc2)CC1	5	-2	5	-1	2819	3	6.7
18	C/C(=N\NC(=O)c1ccccc1[N+](=O)[O-])c1ccc(Br)s1	x	5	x	x	2604	-10	x
19	Nn1c(SC/C=C/c2ccccc2)nnc1-c1ccccn1	-8	2	4	10	5655	-33	3.5
20	COc1cccc(C=O)c1OC(=O)N1CCOCC1	17	2	2	7	3647	-1	0.2
21	O=C(Cc1ccccc1Cl)NC1(O)C(=O)c2ccccc2C1=O	x	-1	x	x	3726	9	x
22	CCCn1c(/N=C/c2ccc3c(c2)OCO3)nc2ccccc21	x	-2	x	x	8027	-20	x
23	O=c1c2ccccc2nc(CSc2nnnn2-c2ccccc2)n1-c1ccccc1	x	-2	x	x	4242	-2	x
24	Cc1c(C(Cc2ccccc2)=NO)c2ccccc2n1C	-4	x	21	9	x	x	-1.9
25	CCOc1ccc(C(=O)NCC(=O)NCC(c2cccs2)N2CCOCC2)cc1 (stereo unspecified)	6	-6	-9	2	x	-18	3.8
26	CCOC(=O)CNC(=O)c1sc(NC(=O)c2cccc(F)c2)nc1C	1	-5	x	x	4560	-22	-3.4
27	O=C1OC(Nc2ccc(Br)cc2F)c2ccccc21 (stereo unspecified)	0	0	1	0	4595	-20	26
28	CCCCn1c(N)c(N(CCC(C)C)C(=O)CC2OC(=O)c3ccccc32)c(=O)[nH]c1=O (stereo unspecified)	3	-23	-4	11	5524	-6	0.0
29	COc1cccc(N2CCN(S(=O)(=O)c3c(C)[nH]c(C)c3C(=O)N3CCCC3)CC2)c1	-4	7	-2	3	5390	10	-0.7
30	O=C(Nc1nncs1)c1ccc2c(c1)OCO2	-3	-2	2	8	5374	-41	2.1
31	O=C(Nc1ccc2ccccc2n1)C1CCCCC1	-5	4	2	1	3721	x	1.8
32	CC1=C(C(=O)OCc2ccccc2)C(c2cccnc2)c2c(n(C)c(=O)n(C)c2=O)N1 (stereo unspecified)	3&2	14	18&9	14&5	2969&10055	-9&-24	0.6&1.3
33	Cc1ccc2sc(N(CCCN(C)C)C(=O)c3ccc(S(=O)(=O)N4CCCCCC4)cc3)nc2c1C	-10	-7	17	-4	4789	-9	-2.0
34	CC12CC3(C)CC(C)(C1)CC(C(=O)NCc1ccccn1)(C2)C3	2	-2	11	5	4101	4	13
35	N#CCCN(C(=O)CN1CCN(S(=O)(=O)c2ccc(Cl)s2)CC1)c1ccc(F)cc1	9	x	12	14	3872	-3	3.7
36	COC(=O)COc1cc(Cl)c(C=O)cc1OC	-9	-3	-3	-6	1976	-18	0.4
37	COc1cccc(CNC(=O)C2CCN(S(=O)(=O)c3ccc4c(c3)NC(=O)CO4)CC2)c1	-3	-3	-4	-4	4476	5	0.0
38	Cc1cc(C)c(S(=O)(=O)Nc2cccc3nsnc23)c(C)c1	-12	-5	x	x	2640	-7	11
39	CCOC(=O)c1cnc(SC)nc1Oc1cccc(NC(=O)c2ccc(Cl)cc2)c1	-6	2	x	x	4863	-30	-8.7
40	COc1ccc(-c2nc(C(=O)NCC3CCCO3)cc3c2[nH]c2ccccc23)cc1 (stereo unspecified)	-36	-8	x	x	5664	-24	-1.2
41	Cc1cc(-c2n[nH]c(=S)n2N=C/C(Br)=C/c2ccccc2)n[nH]1	17	x	24	15	x	x	25
42	CCC(=O)Nc1ccc(C(=O)CSc2nc3ccc(C)cc3[nH]2)cc1	2	-11	7	2	2294	-14	1.4
43	Cc1ccc(C(=O)CCNc2ccc(Br)cc2)o1	6	-4	15	16	4893	-16	5.0
44	CCn1c(=O)c(=O)n(CC)c2cc(S(=O)(=O)Nc3cccc(OC)c3)ccc21	13	7	8	3	8170	1	6.7
45	O=[N+]([O-])c1ccccc1CCc1ccccc1[N+](=O)[O-]	8	x	14	7	2880	4	7.7
46	Cc1cc(C)n(-c2ccc(C(=O)Nc3ccccc3N3CCOCC3)cc2)n1	-1	-7	4	9	10614	-9	0.6
47	COc1ccccc1C(=O)Nc1ccc2c(c1)n(C)c(=O)n2C	-1	2	-3	6	4076	-11	1.0
48	CC(=NNC(=O)CC(=O)NN=C(C)c1ccc([N+](=O)[O-])cc1)c1ccc([N+](=O)[O-])cc1	-6	x	4	-4	x	x	0.4
49	CN1C2CCC1/C(=C\c1ccccc1)C(=O)/C2=C\c1ccccc1	-3	-19	5	7	4101	-34	-2.0
50	Cn1c(=O)[nH]c(=O)c2c1nc(NN=Cc1ccncc1)n2Cc1ccc(F)cc1	-2	x	-5	-2	x	x	3.2
51	CC1CCN(CC(=O)Nc2sc3c(c2C#N)CCC3)CC1	1	-10	5	13	3446	-10	6.7
52	Cc1ccc(-c2cc3nc(C)cc(NCc4ccco4)n3n2)cc1	4	-1	-6	3	16495*	-110	0.1
53	COc1cc(C(=O)ON=C2C3CC4CC(C3)CC2C4)cc(OC)c1OC	-4	5	4	3	3981	-28	-2.6
54	N#C/C(=C\c1cn[nH]c1-c1ccc(Cl)cc1)C(=O)NCc1ccccc1	x	0	x	x	3838	1	x
55	CC(O)c1nc2ccccc2n1CCOc1ccccc1 (stereo unspecified)	-3	0	-8	5	3269	-16	15
56	CSc1ccccc1OCc1cc(C(=O)N(C)CCc2c(C)n[nH]c2C)no1	0	-15	-2	-4	4563	-3	1.3
57	Cc1nn(C)c(C)c1NS(=O)(=O)c1c(C)n[nH]c1C	4	x	12	0	3810	-30	0.2
58	CCCn1c(SCC(=O)NNC(=O)c2ccc(OC)cc2)nnc1C(C)C	12	2	4	2	5395	-13	1.3
59	Cc1ccc(NC(=O)CNCC(c2ccccc2)N(C)C)cc1F (stereo unspecified)	-1	-9	5	-5	4134	-14	5.5
60	Cc1ccc(C(=O)NNC(=O)c2csc(N3CCOCC3)n2)o1	-2	3	-7	0	4220	6	-3.7

# Continued; it opens with the two that closed the last part.
no.	SMILES	Sa ugtP lethal	BJeLR viability	Mtb hypoxia rep	Mtb hypoxia rep growth	Autofluor counter	PrP 5UTR inh	RN4220 kill
59	Cc1ccc(NC(=O)CNCC(c2ccccc2)N(C)C)cc1F (stereo unspecified)	-1	-9	5	-5	4134	-14	5.5
60	Cc1ccc(C(=O)NNC(=O)c2csc(N3CCOCC3)n2)o1	-2	3	-7	0	4220	6	-3.7
61	O=C(OCCNc1nc(-c2ccccc2)nc2ccccc12)c1ccncc1	-16	-9	-5	1	2462	-5	-1.1
62	CCCCC1(CCC)C(=O)NC(=S)NC1=O	-4	x	-1	-2	3188	14	1.1
63	O=C(N/N=C/c1ccc(O)cc1)c1cc[n+](Cc2ccccc2)cc1	x	-5	x	x	1989	-34	x
64	CC(C)(C)c1ccc(S(=O)(=O)NCc2ccc(C(=O)NCC3CCCO3)cc2)cc1 (stereo unspecified)	-1	0	7	21	5862	-2	-0.7
65	C[n+]1cccc(C(=O)NCC2CCCO2)c1 (stereo unspecified)	4	-5	0	11	9607	-9	3.7
66	O=C1CN(C(=O)NCC(=O)N2CCCC2)c2ccccc2N1	2	5	7	3	5193	-12	2.9
67	COc1cccc(C(=O)N2CCN(Cc3ccccc3[N+](=O)[O-])CC2)c1	8	0	4	7	1923	-26	4.9
68	COc1ccc(CN2CCC(n3nccc3NC(=O)c3cccc(F)c3)CC2)cc1O	3	-6	-11	-5	6671	-8	1.5
69	CCOC(=O)c1cn(Cc2ccccc2)nn1	4	4	x	x	11018	-22	3.6
70	CSc1cccc(NC(=O)c2ccccc2N(C)S(C)(=O)=O)c1	7	2	3	12	x	-52	4.1
71	CCc1ccc2c(c1)[C@]1(C(=O)N2)[C@@H]2C(=O)N(Cc3ccccc3)C(=O)[C@@H]2[C@@H]2CCCN21	-3	-7	7	4	21738*	-16	11
72	O=C1NCCN(Cc2cccc(Oc3ccccc3)c2)C1CC(=O)N1CCCO1 (stereo unspecified)	2	-9	12	2	4402	-30	4.8
73	CC1CCN(c2nc(-c3ccncc3)nc3ccccc23)CC1	-10	0	24	11	3578	10	9.1
74	C/C(=N/NC(=O)c1ccc(NC(=O)c2ccc(F)cc2)cc1)c1ccccc1	x	-5	x	x	4166	-3	x
75	COc1cccc(C=Nn2nnnc2N)c1	-4	x	-8	10	x	x	-0.1
76	CCCC1(C(=O)O)NC(c2cccc(OC)c2O)C2C(=O)N(c3ccccc3)C(=O)C21 (stereo unspecified)	0	-4	x	x	5532	-2	-0.5
77	CC(C)(C)c1cc(-c2ccco2)c(C#N)c(SCC#N)n1	24	-1	x	x	2727	-2	-0.8
78	COc1ccc(-n2nc(C(=O)NCC(=O)N3CCCCCC3)c3ccccc3c2=O)cc1Cl	11	-16	3	6	3889	-26	-0.6
79	O=C(CNCC1CCCO1)Nc1ccccc1-n1cccc1 (stereo unspecified)	-3	4	10	11	6696	-23	5.7
80	CC(=O)c1cnn(-c2cc(Oc3ccc(F)cc3)ncn2)c1C	-4	-6	x	x	3502	-26	-9.7
81	CC(OC(=O)c1cccc(-n2cnnn2)c1)c1nc2ccccc2c(=O)[nH]1 (stereo unspecified)	-6	x	-11	-10	3075	-10	-4.5
82	CC1(C)CSC(=NCc2ccccc2)N1C(=O)c1cccc([N+](=O)[O-])c1	3	-4	-8	-4	2473	-15	-2.0
83	CCC(=O)c1ccc(OCC(=O)NCCc2ccccn2)cc1	2	-2	10	-2	3288	-21	3.4
84	COc1ccc(S(=O)(=O)N2CCOCC2)cc1NC(=O)/C=C/c1ccc(F)cc1	1	x	-7	-6	6508	-34	0.4
85	CCC(NC(=O)c1cc(COc2ccc(F)cc2Cl)on1)c1ccncc1 (stereo unspecified)	0	3	-7	-1	3865	-1	4.3
86	CCOC(=O)C1(Cc2ccccc2Cl)CCN(C(=O)c2cnccn2)CC1	0	-12	4	5	2534	-53	7.4
87	O=C(Nc1ccc(Cl)cc1F)C1CC(=O)N(Cc2ccco2)C1 (stereo unspecified)	0	x	2	5	4266	-20	2.3
88	CC(=O)c1sc(NC(=O)c2cccc(C)c2)nc1C	-1	0	11	9	4223	-110	5.4

# Compound activity (PubChem BioAssay)
